Measles inh = inhibitors of measles virus growth in cells, primary screen, measles RdRp inhibitor project, cell-based, single point, HTS; infected Vero cells, GFP fluorescence, 64 h; active compounds read low; z-score (no concentration beside the values); 33,000 compounds, 0.1% hits; AID 745, 2007;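 active = z-score under -3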;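 note: score is relative to mean and SD of the compound wells of a plate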
* hit, by the source's call.

structure	Measles inh
CCC(C)NC(=O)Cn1c(=O)n(CCc2ccc(Cl)cc2)c(=O)c2ccccc21 (stereo not drawn)	-0.46
COC(=O)c1cc2c(=O)n3ccccc3nc2n(CCc2ccccc2)c1=N	-0.94
Cc1ccc(Sc2c(-c3ccccc3)nc3ncccn23)cc1	-0.62
CCc1ccccc1Nc1ncnc2c1cnn2-c1ccc(OC)cc1	-0.22
O=C(Nc1cccc2nsnc12)c1ccc(-c2cccc(Cl)c2)o1	4.7
CC(=O)N(C1=C(N2CCOCC2)C(=O)c2ccccc2C1=O)c1cccc(I)c1	-0.4
CCCC(C(=O)O)N1C(=O)C2CC=C(Cl)CC2C1=O (stereo not drawn)	1
COc1ccc(C2C(C(=O)OC(C)C)=C(C)N=C3SCCC(=O)N32)cc1OC (stereo not drawn)	0.09
COc1cccc(C(=O)Nc2sc3c(c2C(=O)O)CCCC3)c1	0.47
Cc1ccc2cc3cc(C(=O)N4CCCCCC4)sc3nc2c1	-0.02
CSc1nnc(SCc2nc3ccccc3n2C)s1	-1.1
Cc1ccc(C2C(=O)N(C3CCCC3)CC(=O)N2Cc2ccccc2Cl)cc1 (stereo not drawn)	0.47
O=C(O)c1cc(-c2cccc([N+](=O)[O-])c2)n[nH]1	-0.09
O=S1(=O)NC(=NCCO)c2ccccc21	0.7
COCCNC(=O)CCn1c(=S)oc2ccccc21	-0.52
O=C(Cc1ccc([N+](=O)[O-])cc1)Nc1ccc(Cl)c([N+](=O)[O-])c1	-0.35
CCN1CCN(c2ncnc3scc(-c4ccc(OC)cc4)c23)CC1	-0.36
COc1ccc(-n2nc3c(c2NC(=O)COc2ccc(Cl)cc2)CS(=O)C3)cc1 (stereo not drawn)	1.8
Cc1nc2nc(SCC(=O)NCCc3ccccc3)nn2c(C)c1Cc1ccccc1	-0.95
COc1ccccc1NC(=O)c1c(NC(=O)c2cccc(Br)c2)sc2c1CCCCC2	0.41

Sorted by length of the SMILES (largest number first): 5 of the compounds above
structure	Measles inh
COc1ccc(-n2nc3c(c2NC(=O)COc2ccc(Cl)cc2)CS(=O)C3)cc1 (stereo not drawn)	1.8
COc1ccccc1NC(=O)c1c(NC(=O)c2cccc(Br)c2)sc2c1CCCCC2	0.41
O=C(Nc1cccc2nsnc12)c1ccc(-c2cccc(Cl)c2)o1	4.7
CCN1CCN(c2ncnc3scc(-c4ccc(OC)cc4)c23)CC1	-0.36
CCc1ccccc1Nc1ncnc2c1cnn2-c1ccc(OC)cc1	-0.22

(next part)
structure	Measles inh
O=C(c1nn2c(c1Br)NC(c1ccco1)CC2C(F)(F)F)N1CCN(Cc2ccccc2)CC1 (stereo not drawn)	0.37
Cc1ccc(OCCOC(=O)c2sc(=S)n(C)c2C)cc1	0.5
NC(CO)C(O)c1ccc([N+](=O)[O-])cc1 (stereo not drawn)	-0.63
CC(=O)OCCCN1C(=O)c2ccc([N+](=O)[O-])cc2C1=O	1.6
CCOc1ccc(NC(=O)C2CCCN2S(=O)(=O)c2ccc(OC)cc2)cc1 (stereo not drawn)	-0.61
Cc1cccc(NC(=O)COc2cccc(Br)c2)n1	-2.2
C=CCn1c(-c2ccc(OC)c(OC)c2)n[nH]c1=S	-1.4
Cc1cc(C)cc(-n2c(=O)c3sccc3n(Cc3cccc(F)c3)c2=O)c1	1.7
CCOC(=O)c1cccc(NC(=O)CCn2c(=S)oc3ccccc32)c1	1.5
COc1cc(C2CC(=O)Nc3c2ccc2ccccc32)ccc1OC(=O)c1ccc(Cl)cc1 (stereo not drawn)	0.53
O=C(O)c1ccc(C(=O)O)c2c(-c3ccc4c(=O)n5c6ccccc6nc5c5ccc(C(=O)O)c3c45)ccc(C(=O)O)c12	-0.07
COc1ccc(C(=O)NCC(=O)n2nc(C)cc2C)cc1	0.69
CN(C)c1ccc(CNC2CCCCC2)cc1	-0.3
Cc1cc2nc3c(c(=O)n2[nH]1)CCCC3	1.2
COc1ccc(NC(=O)CSc2ccncc2)c([N+](=O)[O-])c1	0
COc1ccc(Cl)cc1NC(=O)C(CCS(C)(=O)=O)NC(C)=O (stereo not drawn)	-0.12
CCOc1ccccc1NC(=O)COc1cc(C)ccc1C(C)(C)C	-0.07
Brc1cccc(-c2nnc3sc(CN4CCOCC4)cn23)c1	0.02
O=C(O)CCCC(=O)c1ccc2c(c1)OCCOCCOCCOCCO2	0.64
CC(=O)Oc1ccc(-c2nc3ccc(Cl)cc3c(=O)o2)cc1	0.03
Cc1cc(NC(=O)c2sc3nc(-c4ccncc4)ccc3c2N)ccc1Br	-0.04
CCC(C)NC(=O)CSc1nc2nc(C)c(Cc3ccccc3Cl)c(C)n2n1 (stereo not drawn)	1.7
CN(C)c1ccc(C=Nc2sc3c(c2C#N)CCC(C(C)(C)C)C3)cc1 (stereo not drawn)	-0.12
COc1cccc(Nc2sc(C(=O)c3ccc(F)cc3)c(N)c2C(=O)NCc2ccc(C)cc2)c1	-0.87
COc1ccccc1-n1c(C=Cc2c(C)[nH]c3ccccc23)nc2ccccc2c1=O	-0.72
CCCCOc1ccc(C2C(=O)N(C3CCCCC3)CC(=O)N2C2CCCC2)cc1 (stereo not drawn)	-0.24
Cc1ccc(S(=O)(=O)NCc2cc(-c3nn(C)c(=O)c4ccccc34)ccc2C)cc1	-0.33
CCCCn1c(CCCNC(C)=O)nc2ccccc21	0.79
O=C1c2ccc(Oc3cccc([N+](=O)[O-])c3)cc2C(=O)N1c1ccc(Br)cc1	-1.4
Cc1ccc(-c2nnc(N3CCOCC3)c3ccccc23)cc1S(=O)(=O)NC(C)(C)CO	-0.27
Cc1sc2ncn(CC(=O)NCC(=O)N3CCN(c4ccccc4F)CC3)c(=O)c2c1C	1.7
Cc1cc(OCC(=O)Nc2ncn[nH]2)ccc1Cl	0.27
O=C(Cn1cnc2scc(-c3ccccc3)c2c1=O)c1ccc(Br)cc1	0.03
CCN(C(=O)c1sc2nc(C)nc(N3CCCCC3)c2c1C)c1ccccc1	1.4
Cn1c(=O)c(-c2ccccc2[N+](=O)[O-])c(Cl)c2ccccc21	-0.51
O=C(COC(=O)c1ccc(N2C(=O)C3CC=CCC3C2=O)cc1)c1ccc(Cl)c([N+](=O)[O-])c1 (stereo not drawn)	0.42
CC(=O)N1CCN(C(=S)c2ccc(-c3ccccc3Cl)o2)CC1	0.17
O=S(=O)(c1ccc2ccccc2c1)N1CCSC1c1ccccc1 (stereo not drawn)	0.34
Cc1cc(C(F)F)nc2sc(C(=O)Nc3ccc4c(c3)OCO4)c(N)c12	0.38
Cc1c(Cl)cccc1C1OC2(C(=O)c3ccccc3C2=O)C2C(=O)N(c3ccc(Cl)cc3)C(=O)C12 (stereo not drawn)	-1.6

Another view of 4 compounds above.
Structure: COc1ccccc1-n1c(C=Cc2c(C)[nH]c3ccccc23)nc2ccccc2c1=O
  Measles inh: -0.72
Structure: Cc1cc(OCC(=O)Nc2ncn[nH]2)ccc1Cl
  Measles inh: 0.27
Structure: O=C(COC(=O)c1ccc(N2C(=O)C3CC=CCC3C2=O)cc1)c1ccc(Cl)c([N+](=O)[O-])c1 (stereo not drawn)
  Measles inh: 0.42
Structure: Cc1c(Cl)cccc1C1OC2(C(=O)c3ccccc3C2=O)C2C(=O)N(c3ccc(Cl)cc3)C(=O)C12 (stereo not drawn)
  Measles inh: -1.6

(further entries)
structure	Measles inh
NC(=O)c1sc2nsc(SCc3ccccc3Cl)c2c1N	-0.46
CN(Cc1ccccc1)c1ncnc2c1cnn2-c1ccccc1	1.7
CC(C)(C)C1CCc2c(sc(NC(=O)c3cccs3)c2C(=O)N2CCCCCC2)C1 (stereo not drawn)	-0.3
CC(C)(Oc1ccc(Cl)cc1)c1nc(-c2ccncc2)no1	-0.59
O=C(O)c1ccc(-n2nnnc2SCc2cccc(Br)c2)cc1	1.1
Cc1ccc(C)c(N2CCN(c3ccc(N4C(=O)COCC4=O)cc3[N+](=O)[O-])CC2)c1	-0.13
COc1cc2c(cc1OC)C(C(=O)NCc1cccs1)C1c3ccccc3CCN1C2=O (stereo not drawn)	-1.4
CCN(Cc1ccccc1)S(=O)(=O)c1ccc(C(=O)N=c2sc3ccccc3n2C)cc1	1.1
COc1ccc(C#N)c(S(=O)Cc2ccccc2)c1 (stereo not drawn)	-1.2
Cc1nc2ccc3nc(NC(=O)c4cc([N+](=O)[O-])ccc4Cl)sc3c2s1	-0.48
C=CCOc1ccc(C2C3=C(CCCC3=O)NC3=C2C(=O)CCC3)cc1	0.45
CSc1nnc2c(n1)OC(c1ccc(Br)cc1)N(C(C)=O)c1ccccc1-2 (stereo not drawn)	0
O=C(CCNS(=O)(=O)c1ccc(Br)s1)NC1CCCCC1	-0.52
CC1CCCC(N2CCN(S(=O)(=O)c3ccccc3[N+](=O)[O-])CC2)C1 (stereo not drawn)	-0.98
CCOC(=O)c1[nH]c(=O)[nH]c1CSc1nc(C)cc(C)n1	0.05
CC(C)Cn1nc(-c2ccccc2)c2ccccc2c1=O	0.67
Cc1cccc(Oc2nc3ccccc3n3c(C)nnc23)c1C	1
Cc1ccc(NC2=NS(=O)(=O)c3ccccc32)c([N+](=O)[O-])c1	-0.73
O=C(CCc1ccccc1)Nc1ccc(F)c([N+](=O)[O-])c1	-0.86
COc1ccc(Oc2coc3cc(OC(=O)c4cccs4)ccc3c2=O)cc1	-0.18
Oc1cccc(C=Nc2c(-c3ccco3)nc3ccccn23)c1	-0.37
Cc1cccc(OCC(=O)Nc2cc(-c3nc4ncccc4o3)ccc2Cl)c1	2.2
Cc1cc(Nc2cccc(C(=O)O)c2)n2ncnc2n1	-0.29
CCOc1ccc(N(C(C)C(=O)Nc2ccc(OC)cc2)S(C)(=O)=O)cc1 (stereo not drawn)	-0.42
CC(C)Cc1ccc(S(=O)(=O)Nc2nc3ccccc3s2)cc1	-0.03
Cc1ccccc1OCC(=O)Nc1ccc(-c2nc3ccccc3o2)cc1	0.35
CC1=C(C(=O)OCc2ccccc2)C(c2ccc(Br)cc2)N2C(=O)C(C)SC2=N1 (stereo not drawn)	-0.34
COCCn1c(=O)c2ccccc2c2ccccc2c1=O	0.12
CC(C)(C)n1nc2c(c1NC(=O)c1cccc(F)c1)CSC2	0.35
COc1ccc(C2C=C(c3ccc(Br)s3)Nc3nnnn32)c(OC)c1 (stereo not drawn)	0.28
COc1ccc2c(c1)-c1cc(Cl)ccc1S(=O)(=O)N2S(=O)(=O)c1ccc2ccccc2c1	0.29
Cc1cc(C)cc(NC(=O)C(=O)NCc2ccncc2)c1	1.2
CCOC(=O)c1sc(NC(=O)CCOc2ccccc2)nc1C	-0.29
CCc1ccccc1N(CC)C(=O)Cc1c(C(=O)O)[nH]c2ccc(Cl)cc12	0.64
Cc1nc(N2CCOCC2)nc(Nc2ccc(F)cc2)c1[N+](=O)[O-]	0.34
Cc1cc(NCCCO)n2c(nc3ccccc32)c1C#N	1.9
Cc1ccc(CNC(=O)c2cc(C)nc3ccccc23)cc1	0.78
O=C(c1nn2c(c1Cl)NC(c1cccs1)CC2C(F)(F)F)N(Cc1ccccc1)c1ccccc1 (stereo not drawn)	-2
Cc1ccccc1NS(=O)(=O)c1ccc2c(c1)Cc1cc(S(=O)(=O)Nc3ccccc3C)ccc1-2	-1.1
CC(C)c1ccc(Nc2cc(C(=O)NCCN3CCCC3)c3ccccc3n2)cc1	-1.8
CC1=CC(C)(C)N(C(=O)c2ccc(NS(C)(=O)=O)cc2)c2ccc(C)cc21	-1.4
COc1cc(C2NC(=S)NC(C)=C2C(N)=O)ccc1OCC(C)C (stereo not drawn)	-0.31
CCOc1ccc(C2C(C(=O)OC)=C(C)NC3=C2C(=O)CC(c2ccc(OC)cc2)C3)cc1 (stereo not drawn)	0.45
FC(F)(F)c1cccc(-n2cc(-c3ccccc3)c3c(NCCN4CCOCC4)ncnc32)c1	0.45
CC12CC(NC(=S)N1)c1ccccc1O2 (stereo not drawn)	-0.24
CC(=O)CC1(O)C(=O)N(Cc2ccccc2Cl)c2ccccc21 (stereo not drawn)	0.27
COc1cccc2cc(-c3nnc(Nc4ccc(Oc5ccccc5)cc4)s3)c(=O)oc12	-0.17
O=C1Nc2ccc(Cl)cc2C12Nc1ccccc1-c1nnc(SCc3ccccc3F)nc1O2 (stereo not drawn)	0.78
CCOC(=O)C(C)n1cnc2sc3c(c2c1=O)CCC3 (stereo not drawn)	0.32
CC1(C(=O)Nc2cccc(C(F)(F)F)c2)CC2c3ccccc3C1c1ccccc12 (stereo not drawn)	0.48
CC12c3ccccc3C(c3ccccc31)C1C(=O)N(c3ccc(C#N)cc3)C(=O)C12 (stereo not drawn)	0.19
O=C(Nc1ncc([N+](=O)[O-])s1)c1ccccc1Br	-1
O=C(Cn1c2ccccc2c(=O)c2ccc(Cl)cc21)Nc1ccc(C(F)(F)F)cc1	-0.21
CC1=C(C(=O)OCCCc2ccccc2)C(c2ccccc2C(F)(F)F)CC(=O)N1 (stereo not drawn)	-0.4
O=c1[nH]c(=S)[nH]nc1Cc1ccccc1	0.23
Cc1ccc(-n2c(=O)c3c(C)c(C)sc3n(CC(=O)NCc3ccco3)c2=O)cc1C	-0.8
CC1CCC(NS(=O)(=O)c2ccc3c(c2)oc(=O)n3C)CC1 (stereo not drawn)	-0.87
C#CC(C)(C)NC1(c2nnnn2-c2c(C)cccc2C)CCCC1	-1.3
Cc1cccc(-n2c(-c3ccccc3)cn3c4c(=O)n(C)c(=O)n(C)c4nc23)c1	1.6

From PubChem

An excerpt, so the mix of outcomes need not match the whole.
